Screening data deposited in PubChem by several laboratories.
Mtb hypoxia rep – PubChem AID 1159583; M. tuberculosis hypoxia-regulated fluorescent reporter, fluorescence; fluorescence inhibition, % (concentration not given with the values); 0.1% of 300,000 active;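 active = 35 to 45% if threefold the growth effect, above 45% if 1.5-fold the growth effect; inactive = the rest, general growth blockers included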;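 note: wells of about 50 µL received 100 nL stock; 0% = vehicle wells and 100% = reference inhibitor wells; whole bacteria with a GFP reporter of the hypoxia response; strong numbers were not always called active; many hits fall short of the cut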
PrP 5UTR inh – inhibition of PrP 5' UTR reporter expression; cell-based PrP 5' UTR mRNA reporter, plate reader; inhibition, % (concentration not given with the values); 0.35% of 340,000 active;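 active = every replicate at 50% or more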;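 note: 0 = median of the neutral control wells; tested in H4 reporter cells; numbers are from one replicate; inactives centre near -14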
BJeLR viability – MLPCN primary cell-based screen for lethality selective to Ras in HRASV12 cells; BJeLR (HRASV12) viability, CellTiter-Glo ATP luminescence, 48 h; reference of the scale not given here; inhibition, % (concentration not given with the values); 0.17% of 300,000 active;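 active = replicate mean above 50%; inconclusive = above 50% but judged a plate artefact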;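 note: 50 nL library stock added to about 25 µL; numbers are from one replicate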
Sa RN4220 lethal – growth inhibition of S. aureus RN4220, primary screen, OD600. 16 h. inhibition, % (no concentration beside the values). 0.33% of 330,000 active. AID 1259311, 2017;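 active = z-score of -3 or lower and OD600 up to 0.18 on both plates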;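 note: plate controls were untreated cells for no effect and reference antibiotic for full effect; stock transfer was 100 nL into about 80 µL; one replicate is shown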
Autofluor counter – compound fluorescence in toxin protease inhibitor counterscreen | compound autofluorescence counterscreen, microsphere flow cytometry; active compounds read high | AID 624483 | fluorescence intensity (test concentration not listed) | 3.1% of 360,000 active;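 active = at least 3 SD above the mean of all compounds, about 16000 in these data; inconclusive = too few beads counted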;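 note: 100 nL of 1 mM stock went into each well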
Sa ugtP lethal – growth inhibition of ugtP-null S. aureus, primary screen, RN4220 ugtP deletion, OD600 | 16 h; some inactives read as strong as hits | growth inhibition, % (test concentration not listed) | 0.54% of 330,000 active;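 active = z-score under -3 and OD600 up to 0.15 on both plates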;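 note: plate controls were untreated wells for no effect and antibiotic for full effect; wells of about 80 µL received 100 nL stock; the first replicate is given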
Mtb hypoxia rep growth – also measured in Mtb hypoxia rep; calls as there; growth inhibition, %; measured here: M. tuberculosis growth (absorbance);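 0% = vehicle and 100% = reference antibiotic; read after six days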
* = called active by the depositor; ? = inconclusive; / = no result given.

SMILES	Mtb hypoxia rep	Mtb hypoxia rep growth	PrP 5UTR inh	BJeLR viability	Sa RN4220 lethal	Autofluor counter	Sa ugtP lethal
O=C(CSc1nnc2ccccn12)NNC(=O)c1cccc([N+](=O)[O-])c1	14	6	/	/	1.2	/	1
O=c1[nH]nc(-c2ccc(F)cc2)cc1Cc1ccccc1	-2	-3	-24	-5	2.9	3583	-3
COC(=O)C1=C(C(=O)OC)C2N(Cc3ccccc3)c3ccccc3[C@@]23CC(C(=O)OC)N(C(=O)NC2CCCCC2)C3=N1 (stereo partly drawn)	5	10	/	/	-3.6	/	7
COCCn1c(SCC(=O)N2CCCCCC2)nc2c([nH]c3ccccc32)c1=O	8	13	-9	0	3.2	?	-2
COc1ccc(/C=N/n2cnnc2SCc2ccc(OC)cc2)cc1	/	/	-8	4	/	2507	/
COc1ccc(-c2oc(=O)c3cc(OC)c(OC)cc3c2C#CCCCO)cc1	5	7	14	/	7.8	4480	-9
Cc1ccc(SCC(=O)OCC(=O)N(CCC#N)c2ccccc2)cc1	3	3	-27	/	5.8	3859	4
Cc1ccc2c(C)c(C(=O)NCC(C)(C)N3CCOCC3)oc2c1C	13	5	-16	2	3.6	5455	9
CCOc1cccc(C(=O)Nc2cccnc2)c1	9	2	-28	7	1.5	3287	4
CC(SCc1ccccc1)C(=O)Nc1ccccc1 (stereo not drawn)	-4	1	-24	-2	3.0	3902	2
COc1ccc(C(=O)N2CCN(CCNC(=O)C(=O)Nc3ccc(F)cc3)CC2)cc1	7	10	-14	7	1.4	4036	12
COCCOC(=O)C1=C(C)NC2=C(C(=O)CCC2)C1c1ccc2c(c1)OCO2 (stereo not drawn)	2	6	-28	-1	8.0	12214	-2
CCN1CCN(C(c2cccs2)C(C)NS(=O)(=O)c2ccc(Br)cc2)CC1 (stereo not drawn)	2	-6	/	-1	7.8	10111	-2
Cc1ccc(OCCNC(=O)c2ccccc2OCc2c(C)noc2C)cc1	9	7	/	/	4.0	/	1
O=CNC1CCCc2c1[nH]c1ccc(Cl)cc21 (stereo not drawn)	-1	2	-11	4	-4.9	9427	-18
NS(=O)(=O)c1ccc(NC(=O)CSc2cn[nH]n2)cc1	-1	1	17	-2	0.2	6091	-1
COCc1cc(C)nc(OCC(=O)NN=Cc2ccc(O)cc2)c1C#N	3	2	/	/	4.6	/	-4
CCc1cc(=O)oc2cc(OCC(=O)NCCCN3CCOCC3)c(Cl)cc12	5	-1	-8	3	2.6	5626	6
Cc1ccccc1CS(=O)(=O)c1ccc(C(=O)N2CCC(C)CC2)cc1[N+](=O)[O-]	10	5	-15	-3	3.1	4384	4
CCCC(C(=O)NC(C)(C)C)N(CC1CCCO1)C(=O)CNS(=O)(=O)c1ccc(F)cc1 (stereo not drawn)	2	6	-9	4	4.7	5537	2
CCN1CCN(CCCNC(=O)Cn2cc3c(n2)CCCC3)CC1	/	/	-20	-6	-0.5	5636	7
COc1ccc(C=O)cc1OC(=O)C1(C)Cc2ccccc2C(=O)O1 (stereo not drawn)	-4	1	-25	-4	3.0	4178	11
CCC(CO)NC(=O)c1ccccc1C(F)(F)F (stereo not drawn)	5	1	1	-5	4.4	/	6
O=C(Nc1nc2c(s1)C(=O)CCC2)c1ccccc1	10	15	-55	24	1.5	2969	5
O=C(c1ccco1)N1CCN(C(=O)c2oc(=O)c3ccccc3c2-c2ccccc2)CC1	/	/	-46	7	-1.7	6442	6
CCCC1=C(C(=O)OCC)C(c2cc(Cl)cc(OC)c2OCc2ccccc2)NC(=O)N1 (stereo not drawn)	0	1	-21	-5	-1.3	21474*	-14
CC1CCN(S(=O)(=O)c2ccc3c(c2)N(CC(=O)NCCCN2CCCC(C)C2)C(=O)CS3)CC1 (stereo not drawn)	14	2	-7	3	2.3	5723	7
O=C1C2C3C=CC(C4CC34)C2C(=O)N1/N=C/c1ccc(-c2cccc([N+](=O)[O-])c2)o1 (stereo not drawn)	/	/	-23	11	/	8444	/
O=C(NN=Cc1cc2c(cc1Cl)OCO2)c1cccnc1	4	1	/	/	-1.9	/	5
CC1=C(C)SC(=C(C#N)c2nnc(N3CCOCC3)n2-c2ccccc2)S1	0	14	/	4	0.8	/	-3
Cc1ccc(NC(=O)C2CC(=O)n3ncnc3N2)cc1C (stereo not drawn)	6	-1	-16	-6	2.0	4797	0
O=C(CN1CCN(CC(=O)Nc2ccc(-c3ccccc3)cc2)CC1)Nc1ccc(F)cc1	9	6	-23	-3	1.6	4379	4
O=C(CNC(=O)c1ccccc1)OCc1nnc(-c2ccccc2)o1	1	-8	-22	7	2.0	5762	4
CC1CCCC(NC(=O)COC(=O)/C=C/c2ccc([N+](=O)[O-])cc2)C1C (stereo not drawn)	13	11	-30	/	-2.5	8547	3
CCCC(=O)Nc1ccc(NC(=O)CCc2ccccc2)cn1	15	7	-3	7	-2.6	3250	17
NS(=O)(=O)c1ccc(CCNC(=O)C(c2ccccc2)c2ccccc2)cc1	-5	-3	-30	-7	2.2	5514	10
CC(=O)c1cccc(Nc2nc(-c3sc(C)nc3C)cs2)c1	11	-6	-2	6	-7.4	4649	-1
COc1ccc(CCNC(=O)Cn2cccc2C(=O)c2ccccc2)c(OC)c1	8	-4	-4	-8	-0.8	4425	13
CN1c2ccsc2C(=NNC(=O)c2c(F)cccc2F)CS1(=O)=O	19	5	/	/	3.6	/	-2
Cc1ccc(C(=O)N2CCN(c3ccccn3)CC2)cc1[N+](=O)[O-]	7	17	6	3	-0.3	4542	2
CN(C(=O)CSc1ncn[nH]1)C1(C#N)CCCCC1	3	-2	-24	/	5.8	3009	6
Nc1nonc1-n1nnc(C(=O)NN=Cc2ccncc2)c1-c1cccs1	-1	-1	/	/	2.9	/	1
Cc1cc(C)n(CC(C)NC(=O)CCc2nnc(CCc3ccccc3)o2)n1 (stereo not drawn)	13	0	-12	8	3.6	3945	-1
CCN(CC(=O)NCc1cccs1)C(=O)c1cc(Br)ccc1O	2	2	-20	/	6.3	3611	0
Cc1ccc(-n2nc3c(c2NC(=O)c2c(-c4ccccc4Cl)noc2C)CS(=O)(=O)C3)c(C)c1	3	2	-12	-12	3.9	23658*	-1
COc1ccc(CC(=O)N2CC(C)CC(C)C2)cc1OC (stereo not drawn)	1	6	-7	8	1.0	2885	-1
O=C(NCCc1ccccc1)c1ccc(-c2ccc(F)cc2)o1	-9	-4	4	5	21	3323	6
Cc1cc(C)cc(N(CC(=O)N2CC=C(c3ccccc3)CC2)S(=O)(=O)c2c(C)noc2C)c1	/	/	0	0	6.8	5819	0
COc1ccc2[nH]c3c(N4CCc5ccccc5C4)ncnc3c2c1	-4	7	16	29	16	4669	-14
CCOC(=O)C1CCCN(C(=O)c2ccc(-c3ccccc3Cl)o2)C1 (stereo not drawn)	2	0	-78	/	7.2	/	-5
CCn1c(/C=C/c2ccc(F)cc2)nc2ccccc2c1=O	-3	5	-6	3	15	3179	-2
CCc1ccc(C(=O)CSc2nc(C)cc(=O)[nH]2)cc1	7	1	-14	-1	8.1	4120	1
Cc1ccc(S(=O)(=O)c2nnn3c2nc(N2CCC(C(N)=O)CC2)c2ccccc23)cc1	0	-4	-9	0	0.6	3925	11
COc1ccc(NC(=O)/C=C/c2ccc(OC(F)F)cc2)cn1	-5	6	-15	4	-2.0	5496	1
COc1cccc2c1Oc1ncccc1N(C(=O)CCC(=O)NCc1ccccc1Cl)C2	15	5	-3	-6	-1.2	4477	7
CC(C)Cn1cc(F)c(=O)n(CC(C)C)c1=O	3	0	-9	-1	7.7	3694	6
COc1ccc(OCC(=O)Nc2ccc(S(=O)(=O)N3CCCC3)cc2)cc1	11	-2	9	9	6.1	3191	7
CCC(=O)N/C(=N/c1nc(C)cc(C)n1)Nc1ccccc1	-9	1	9	5	6.4	4324	-2
COCCCNC(=O)c1cc2c(=O)n(C)c3ccccc3c2n1C	/	/	-14	-4	0.1	4392	1
COc1ccc(N2CCc3c(C)nc4c(OC)cc(OC)cc4c32)cc1	10	13	-38	3	4.6	3529	11

Copied from above (2 entries):
SMILES	Mtb hypoxia rep	Mtb hypoxia rep growth	PrP 5UTR inh	BJeLR viability	Sa RN4220 lethal	Autofluor counter	Sa ugtP lethal
COCCCNC(=O)c1cc2c(=O)n(C)c3ccccc3c2n1C	/	/	-14	-4	0.1	4392	1
COc1ccc(N2CCc3c(C)nc4c(OC)cc(OC)cc4c32)cc1	10	13	-38	3	4.6	3529	11

Compound profiles (already shown):
Entry for CCn1c(/C=C/c2ccc(F)cc2)nc2ccccc2c1=O = Mtb hypoxia rep = -3; Mtb hypoxia rep growth = 5; PrP 5UTR inh = -6; BJeLR viability = 3; Sa RN4220 lethal = 15; Autofluor counter = 3179; Sa ugtP lethal = -2
Entry for COc1ccc(N2CCc3c(C)nc4c(OC)cc(OC)cc4c32)cc1 = Mtb hypoxia rep = 10; Mtb hypoxia rep growth = 13; PrP 5UTR inh = -38; BJeLR viability = 3; Sa RN4220 lethal = 4.6; Autofluor counter = 3529; Sa ugtP lethal = 11
Entry for CCOC(=O)C1CCCN(C(=O)c2ccc(-c3ccccc3Cl)o2)C1 (stereo not drawn) = Mtb hypoxia rep = 2; Mtb hypoxia rep growth = 0; PrP 5UTR inh = -78; BJeLR viability = /; Sa RN4220 lethal = 7.2; Autofluor counter = /; Sa ugtP lethal = -5

(listing goes on)
SMILES	Mtb hypoxia rep	Mtb hypoxia rep growth	PrP 5UTR inh	BJeLR viability	Sa RN4220 lethal	Autofluor counter	Sa ugtP lethal
O=C(Nc1ccc2ncccc2c1)c1ccccc1	/	/	-10	-3	/	4078	/
O=C(COC(=O)Cn1[nH]c(=O)c2ccccc2c1=O)Nc1c(Cl)cccc1C(F)(F)F	/	/	-9	-19	/	?	/
CC1(C)OC2OC(C(=O)NN=Cc3ccccc3F)C3OC(C)(C)OC3C2O1 (stereo not drawn)	6	0	/	/	6.3	/	-3
O=C(c1nn2c(C(F)(F)F)cc(-c3ccco3)nc2c1Br)N1CCCc2ccccc21	/	/	2	11	0.5	4626	-31
CCOc1ccc(CNC(=S)N/N=C/c2cccnc2)cc1	/	/	-22	5	/	2302	/
CCOC(=O)N1CCN(c2ccc(Cl)c(Cl)c2)CC1	25	31	-1	-1	3.3	10656	2
CC[C@](C)(O)c1cc2ccccc2c(=O)o1	13	9	-6	/	7.6	3966	-1
c1ccc(CN2CCOCCOCCOCCOCC2)cc1	13	-2	-50	5	4.9	3705	1
O=C(NCC1CCCO1)c1cccc2c1C(=O)c1ccc(N3CCOCC3)cc1S2(=O)=O (stereo not drawn)	6	7	/	/	0.6	/	-1
O=C(N/N=C\c1ccncc1)c1ccc(Br)s1	/	/	-7	-2	/	5298	/
C=CCSC1=N/C(=C\C=C\c2ccco2)C(=O)S1	/	/	-21	0	/	2948	/
O=C(CCn1cncn1)N1CCCC(N2CCN(c3cccc(C(F)(F)F)c3)CC2)C1 (stereo not drawn)	4	6	-18	9	3.8	6560	5
COc1cccc(CNc2ccccc2O)c1OCc1ccccc1F	14	3	-13	3	3.8	3491	8
CC(C)CN(C(=O)CN1CCN(c2ccc(O)cc2)CC1)c1c(N)n(CC(C)C)c(=O)[nH]c1=O	1	3	-11	3	-1.8	2041	3
COc1ccc(NC(=S)N2CCN(C(=O)C3CCCO3)CC2)c(OC)c1 (stereo not drawn)	8	13	-21	5	-1.0	2181	6
COc1ccc(OC)c(NC(=O)c2ccc(OCC(=O)N3CCOCC3)c(OC)c2)c1	9	6	-22	-3	2.1	5945	2
COc1ccccc1NC(=O)COC(=O)c1ccc(N2CCCC2=O)cc1	5	-2	-14	/	4.2	7887	6
CC(C)CCNC(=O)c1ccccc1NC(=O)C1=CSCCO1	-5	8	-2	-5	9.5	2887	-4
CS(=O)(=O)N1CCC(Oc2ccccc2C(=O)N2CCC[C@H]2CO)CC1	3	-1	-28	-2	1.8	/	3
C=CCNc1cc(C)oc(=O)c1C(=O)CC	2	-4	-20	-16	-2.3	3253	3
Nc1ccc(C(=O)OCCCc2nc3ccccc3[nH]2)cc1	-1	5	-5	0	26	3295	8
COc1ccc(C2CC(=O)NC3=C2C(=O)CCC3)cc1Cl (stereo not drawn)	/	/	-11	6	4.2	2034	0
Cc1ccc(C)c(OCC(=O)NC2CCCCCC2)c1	/	/	-15	-2	/	?	/
Cc1cccn2c(=O)c(C=NO)c(N3CCCC3)nc12	15	5	/	/	4.6	/	0
CCCNC(=O)c1ccccc1NC(=O)c1ccc2c(c1)NC(=O)C(C)S2 (stereo not drawn)	4	0	-8	10	3.3	4194	15
